Compound activity as filed in PubChem BioAssay.
gsp ag: agonists of gsp mutant (McCune-Albright syndrome); AID 624287; Potency, µM (series often up to 76.9 µM), without a hit: at the top dose activation (cAMP increase), hits mostly activators; hit rate 0.13% among 340,000; gsp mutant cells, cAMP HTRF, 30 min; control for the full effect not named in the record; active = well fitted activation curve with a large enough effect; inconclusive = small, poorly fitted or top-dose-only effect, or another doubt; inactive = no such curve, though single readings can be large or run the other way; cell line not stated here;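 further: phosphodiesterase inhibitor Ro 20-1724 added with compounds to block cAMP breakdown; potency means the concentration at half of the fitted maximal effect; nearly all actives have a fitted effect of over 60% in size; about a fifth of the inactives were tested at one dose only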
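Cells stably selected in G418 were plated at 2000/well, grown 16-24 hr, then given compounds in DMSO with the PDE inhibitor […] (300 uM solution added) for 30 min at 37C; cAMP was read by HTRF.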
CtBP-E1A inh: CtBP/E1A binding inhibition; AlphaScreen GST-E1A/His-CtBP binding, 1536-well; hits give low values; control for the full effect not named in the record; activity change, % (concentration not given with the values); hit rate 0.49% among 340,000; AID 651724; in the data active means activity change below about -65%; inconclusive means about -30% to -65%; inactive means above about -30%; further: on the % scale 0 is the no-effect control and ±100 the full control effect
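Homogeneous bead-based format: GST-tagged E1A captured on glutathione donor beads, His-tagged CtBP on nickel acceptor beads; compounds precede bead addition by 2 h at 37 °C.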
Sfp PPTase inh: inhibitors of Bacillus subtilis Sfp phosphopantetheinyl transferase; Q9F4F7; Biochemical Sfp PPTase activity, qHTS; Potency, µM, inactives show max response, negative = inhibition, actives largely listed as inhibitors; hit rate 3.5% among 310,000; AID 1490; active means well fitted inhibition curve with a large enough effect; inconclusive means small, poorly fitted or top-dose-only effect, or another doubt; inactive means no such curve, though single readings can be large or run the other way;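 further: the enzyme is Sfp with the accession as filed and its product quenches rhodamine fluorescence; potency means the concentration at half of the fitted maximal effect; 0% = enzyme reaction without inhibitor and -100% = no enzyme wells; top concentration of the series not given in the record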
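Step 1, compound plus 15 nM Sfp-PPTase, 15 min, room temperature. Step 2, add rhodamine-CoA (5 uM) and BHQ-2-YbbR (12.5 uM). Step 3, read 525/598 nm fluorescence at 0 and 30 min.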
gsp antagonist: antagonizes gsp, the McCune-Albright syndrome mutation | gsp-mutant cells, cAMP HTRF, 30 min; control for the full effect not named in the record | Potency, µM (doses to about 76.9 µM), inactives show at the top dose activity change, negative = inhibition, actives largely listed as inhibitors | hit rate 0.4% among 340,000 | AID 624288; active = falling curve of any shape with a large fitted effect; inconclusive = falling curve, mostly with a smaller effect; inactive = flat or rising curve; cell line not stated here;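 further: intracellular cAMP measured with PDE inhibitor Ro 20-1724 present during compound exposure; potency means the concentration at half of the fitted maximal effect; on the % scale 0 is the no-effect control and ±100 the full control effect; nearly all actives have a fitted effect of over 65% in size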
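Cells in G418 medium, seeded 16-24 h, 37C; buffer exchange to DPBS + 1 mM CaCl2, 0.5 mM MgCl2, 0.05% BSA; cpds in DMSO + […] (300 uM stock), 30 min 37C; HTRF cAMP detection.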
TRPV1 potentiator: enhances activation of the human vanilloid receptor TRPV1; potentiation, % at 8.33 µM; Q8NER1; AID 540277; TRPV1-expressing cells, Fluo-8 calcium influx, capsaicin EC20 potentiation; host cell line not named in the record; control for the full effect not named in the record; hit rate 0.02% among 320,000; active means potentiation above 80%; inconclusive means 30% to 80%; inactive means below 30%; further: 0% is about no effect
Target sequence (Q8NER1 whole entry, looked up): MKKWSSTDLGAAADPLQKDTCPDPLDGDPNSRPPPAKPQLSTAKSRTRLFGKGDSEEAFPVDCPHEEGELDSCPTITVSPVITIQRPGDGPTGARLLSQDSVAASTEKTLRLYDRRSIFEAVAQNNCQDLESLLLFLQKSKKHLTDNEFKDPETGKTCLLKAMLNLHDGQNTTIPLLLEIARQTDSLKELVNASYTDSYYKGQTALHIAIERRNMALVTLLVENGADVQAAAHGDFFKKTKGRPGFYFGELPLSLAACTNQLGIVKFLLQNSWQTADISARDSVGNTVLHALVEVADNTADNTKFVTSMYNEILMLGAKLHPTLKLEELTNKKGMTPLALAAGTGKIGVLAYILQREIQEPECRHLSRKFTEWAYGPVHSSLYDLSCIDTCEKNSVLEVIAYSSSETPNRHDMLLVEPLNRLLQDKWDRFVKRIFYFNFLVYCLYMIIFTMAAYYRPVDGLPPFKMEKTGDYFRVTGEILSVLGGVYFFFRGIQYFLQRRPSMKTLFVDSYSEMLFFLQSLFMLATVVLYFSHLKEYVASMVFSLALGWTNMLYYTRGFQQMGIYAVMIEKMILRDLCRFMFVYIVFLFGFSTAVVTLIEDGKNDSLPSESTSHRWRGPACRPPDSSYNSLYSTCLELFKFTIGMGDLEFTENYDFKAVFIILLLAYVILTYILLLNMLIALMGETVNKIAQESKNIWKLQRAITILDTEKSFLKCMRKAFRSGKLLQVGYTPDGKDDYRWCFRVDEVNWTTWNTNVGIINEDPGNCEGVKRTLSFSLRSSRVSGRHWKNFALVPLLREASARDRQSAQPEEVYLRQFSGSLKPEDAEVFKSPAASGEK
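TRPV1-expressing cells were cultured overnight at 35.5C and loaded with Fluo-8 calcium dye for 40 to 90 min at room temperature. After a 10 s baseline, compound was added and calcium influx was read kinetically for 3 min (ex 480/em 520 nm).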
Menin MLL FP FL: inhibitors of human menin-MLL interaction, wild-type MLL peptide; Fluorescence polarization, fluorescein-MLL peptide displacement from menin; FP activity change, % at 61.4 µM; 290,000 tested, under 10 active; AID 1766; inconclusive = falling polarisation curve, or a change in total fluorescence; inactive = total fluorescence flat and polarisation flat or rising; no compound was filed as active; the % refers to the polarisation; negative = inhibition;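 further: % of control where 0% means no effect; inhibitors lower the polarisation; unlabelled MLL peptide was the positive control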
ClpP mod: qHTS Assay for Activators of ClpP; purified B. subtilis ClpP, FRET peptide cleavage, 20 min; Potency, µM (top dose mostly 57.5 µM), without a hit: at the highest dose activity change, negative = active; hit rate 1.9% among 340,000; AID 651965, 2013; active = well fitted falling curve with a large enough effect; inconclusive = small, poorly fitted or top-dose-only effect; inactive = no such curve, though single readings can be large or run the other way; further: potency means the concentration at half of the fitted maximal effect; the source files actives as falling curves though it sought activators and does not explain the sign; nearly all actives have a fitted effect of over 65% in size; many hits overshoot -100%
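ClpP 10 microg/mL final, pH 8 Tris/KCl buffer with BSA, glycerol, Tween-20; compound pinned in; FRET-FV substrate; RT 20 min; Ex320/Em430; ΔFRET vs ADEP 5.8 microM, DMSO, no enzyme.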
The depositor's hits bear a star; ? = inconclusive; . = no result given; [ ] = another dose, or the depositor's remark. No enrichment for hits; 5.3% or so of the library scored in one or more.

SMILES	gsp ag	CtBP-E1A inh	Sfp PPTase inh	gsp antagonist	TRPV1 potentiator	Menin MLL FP FL	ClpP mod
CCOc1ccc(OCCn2c(=S)[nH]c3c(N)ncnc32)cc1	5%	-3	?	-11%	10	-8.5	-0.7%
O=C(NCCCCc1ccccc1)NC[C@@H]1CC[C@@H](Cc2ccc(-c3ccccc3)cc2)O1	.	6	.	-11%	.	.	-3.2%
CCNC(=O)c1c(C)[nH]c(C(=O)OCC)c1C	1%	36	25%	3%	-3	0.3	0.7%
Nn1c(SCc2ccc(F)cc2)nnc1-c1ccccn1	0%[15.4 µM]	-18	7%	17%	-27	-0.9	.
Cc1onc(-c2ccccc2)c1C(=O)N1CCOCC1	-27%	-3	14%	10%	8	-0.7	1.0%
O=C(CCN1CCOCC1)Nc1ccc(Cl)cc1	0%	.	17%	3%	-22	-2.2	-0.5%
O=C(CCN1C(=O)c2ccccc2S1(=O)=O)Nc1cccc2ccccc12	-12%[15.4 µM]	5	11%	3%	12	-6.2	-0.6%
Cc1cc(NC(=O)CSc2nnnn2-c2ccc(C(C)C)cc2)no1	3%[15.4 µM]	4	14%	-12%	0	-0.3	.
COc1ccc(CNC(=O)c2cc(=O)c3ccccc3o2)cc1	17%	-9	3%	1%	5	-25	-3.6%
COc1ccc(N(C(=O)c2cccc(OC)c2OC)C2C=CS(=O)(=O)C2)c(OC)c1 (stereo not given)	15%	6	7%	-2%	-18	3.3	0.2%
CCOC(=O)CNC(=O)CSc1nnc(-c2ccccc2)c(-c2ccccc2)n1	5%[15.4 µM]	-2	12%	-67%	-2	-0.9	.
O=C(Cc1ccccc1)N1N=C(c2ccncc2)CC1(O)C(F)(F)F (stereo not given)	2%	.	-2%	7%	8	-0.7	1.4%
COc1ccc(OC)c(NC(=O)c2cc(S(=O)(=O)N3CCCC3)cn2C)c1	12%	-17	17%	-2%	-5	2.6	4.6%
S=C1NC[C@H](CC2CCCCC2)N1CCCCC1CCCCC1	.	4	18%	10%	-16	2.3	0.4%
CC(C)(C)Nc1nc(N)nc(Cl)n1	-2%	2	-14%	9%	-8	-6.8	.
Cc1cccc2c(C(=O)n3cccn3)cc(-c3ccccc3Cl)nc12	-6%	-2	?	-3%	12	2.7	41%
Cc1cc(C)n(CC(=O)O)c(=O)c1[N+](=O)[O-]	12%[15.4 µM]	0	0%	-7%	-1	-2.6	-2.5%
Cc1nnc(NC(=O)c2ccc(-c3ccc([N+](=O)[O-])cc3)o2)s1	-9%	8	-10%	-14%	8	0.0	-0.8%
CC1(C)Cc2c(C#N)c(SCC(=O)c3ccccc3)nc(N3CCOCC3)c2CS1	19%	0	-8%	-8%	20	-0.1	-3.6%
Cc1[nH]c2ccccc2c1C(=O)CN1CCN(c2ccc(Cl)cc2)CC1	3%	5	10%	8%	-5	1.2	.
COc1ccc(-c2c(C)[nH]n3c(=O)c(Cc4ccccc4)c(C)nc23)cc1OC	1%	?	1%	?	1	0.0	.
O=C(O)c1ccc(NS(=O)(=O)c2cccc(C(=O)Nc3ccc([N+](=O)[O-])cc3)c2)cc1	-1%	.	23%	5%	1	1.6	0.0%
COc1cccc(C(C(=O)NC(C)(C)C)N(Cc2ccc(F)cc2)C(=O)CCC(=O)Nc2cc(C)on2)c1OC (stereo not given)	1%[15.4 µM]	-10	13%	.	-10	0.2	.
C(=N\n1cnnc1)/C1CCCCC1	-20%	-4	11%	-5%	17	3.1	-1.6%
O=C(C[C@@H]1C/C=C\CCC(=O)O[C@H](c2ccccc2)CNC1=O)N[C@H](CO)Cc1ccccc1	-10%	4	.	25%	.	.	1.6%

2 entries drawn at random from those above:
SMILES	gsp ag	CtBP-E1A inh	Sfp PPTase inh	gsp antagonist	TRPV1 potentiator	Menin MLL FP FL	ClpP mod
CCOC(=O)CNC(=O)CSc1nnc(-c2ccccc2)c(-c2ccccc2)n1	5%[15.4 µM]	-2	12%	-67%	-2	-0.9	.
O=C(CCN1C(=O)c2ccccc2S1(=O)=O)Nc1cccc2ccccc12	-12%[15.4 µM]	5	11%	3%	12	-6.2	-0.6%

An excerpt from above, reduced to gsp antagonist:
SMILES	gsp antagonist
CCOc1ccc(OCCn2c(=S)[nH]c3c(N)ncnc32)cc1	-11%
O=C(NCCCCc1ccccc1)NC[C@@H]1CC[C@@H](Cc2ccc(-c3ccccc3)cc2)O1	-11%
CCNC(=O)c1c(C)[nH]c(C(=O)OCC)c1C	3%
Nn1c(SCc2ccc(F)cc2)nnc1-c1ccccn1	17%
Cc1onc(-c2ccccc2)c1C(=O)N1CCOCC1	10%
O=C(CCN1CCOCC1)Nc1ccc(Cl)cc1	3%

Back to the main list with the two entries that preceded the break.
SMILES	gsp ag	CtBP-E1A inh	Sfp PPTase inh	gsp antagonist	TRPV1 potentiator	Menin MLL FP FL	ClpP mod
C(=N\n1cnnc1)/C1CCCCC1	-20%	-4	11%	-5%	17	3.1	-1.6%
O=C(C[C@@H]1C/C=C\CCC(=O)O[C@H](c2ccccc2)CNC1=O)N[C@H](CO)Cc1ccccc1	-10%	4	.	25%	.	.	1.6%
Cc1ccsc1CNC1C2CC3CC(C2)CC1C3 (stereo not given)	13%[15.4 µM]	-5	8%	7%	2	-1.2	22µM*
O=C(CCCN1C(=O)/C(=C/c2ccccc2Cl)SC1=S)NNC(=O)c1ccncc1	-17%[15.4 µM]	-11	-12%	-8%	-8	0.7	.
CCCCN(C(=O)CSc1nnc(-c2ccc(Cl)cc2)o1)c1c(N)n(CC(C)C)c(=O)[nH]c1=O	0%	-10	.	9%	-9	.	-2.6%
C/C(=N\NC(=O)c1ccc(CSc2nncn2C)cc1)c1ccc(C#N)cc1	18%[15.4 µM]	-8	17%	8%	7	6.0	-1.9%
COc1ccccc1C1C(C(=O)c2ccc(C)o2)=C(O)C(=O)N1c1cc(C)on1 (stereo not given)	?	6	-18%	10%	-9	.	.
COc1ccc(CC(=O)NCC(=O)N/N=C/c2cc(Br)ccc2OC)cc1	-9%	-88*	16%	-3%	6	11	.
Cc1ccnc(NC(=O)c2ccco2)n1	-10%	-9	20%	7%	7	-1.0	.
Cc1nc2ccc(S(=O)(=O)NCC(=O)N3CCC(N4CCCCC4)CC3)cc2s1	?	4	1%	-2%	10	-7.8	-0.1%
COc1ccc(NC(=O)N2CCN(S(C)(=O)=O)CC2)cc1	-1%[15.4 µM]	-6	14%	.	1	-1.0	.
CCCCC1CCC(C(=O)N(CCC(C)C)c2c(N)n(CCCC)c(=O)[nH]c2=O)CC1 (stereo not given)	-32%[inhibitor]	-1	.	.	.	.	-2.3%
CCOC(=O)C1=C(CS(=O)(=O)c2ccc(F)cc2)NC(=O)NC1c1ccc(O)c(O)c1 (stereo not given)	-2%	.	-8%	-5%	-7	-4.2	-3.2%
O=C(COC(=O)/C=C/c1ccc(OC(F)F)cc1)NC1CCCCC1	5%	9	.	6%	?	.	-3.1%
COC(=O)c1cc(=O)n(Cc2cccs2)c(=Nc2ccc(F)cc2)s1	-19%	1	1%	-8%	30	-3.9	0.3%
CCCC(C)NC(=O)C1CC(=O)N(CCc2ccc(F)cc2)C1 (stereo not given)	0%	.	25%	1%	-10	4.1	1.0%
CN1CCN(C(=O)c2cccn(Cc3cccc(Cl)c3)c2=O)CC1	15%	14	9%	7%	4	-5.0	-6.1%
CCOC(=O)Cc1csc(NC(=O)CCSc2ccccc2)n1	?	6	12%	-11%	4	6.6	.
Cc1c(C(N)=O)sc2ncn(CC(=O)NCCc3ccccc3)c(=O)c12	16%[15.4 µM]	1	8%	10%	4	2.9	-1.0%
Cc1cccc(C(=O)NCC(=O)OC(C)C(=O)Nc2ccc(Cl)cn2)c1 (stereo not given)	-6%	1	.	2%	-19	.	-10%
CCOc1ccc(NC(=O)COc2ccc3c(c2)OCO3)cc1	-2%	-4	5%	2%	?	0.5	.
CSc1ccccc1NC(=O)c1cnc2sc(C)cn2c1=O	-39%[inhibitor]	-1	.	-10%	-11	.	-3.8%

Compound profiles (already shown). Order of values: gsp ag	CtBP-E1A inh	Sfp PPTase inh	gsp antagonist	TRPV1 potentiator	Menin MLL FP FL	ClpP mod
Profile of S=C1NC[C@H](CC2CCCCC2)N1CCCCC1CCCCC1 → .	4	18%	10%	-16	2.3	0.4%
Profile of CCOc1ccc(OCCn2c(=S)[nH]c3c(N)ncnc32)cc1 → 5%	-3	?	-11%	10	-8.5	-0.7%
Profile of O=C(O)c1ccc(NS(=O)(=O)c2cccc(C(=O)Nc3ccc([N+](=O)[O-])cc3)c2)cc1 → -1%	.	23%	5%	1	1.6	0.0%
